Sa helicase inh: S. aureus DNA helicase inhibition; inhibition, %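 (tested at about 80 µM)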; AID 485395; actives 0.05% (n = 120,000); purified S. aureus helicase, fluorescence unwinding assay; about half of the hits fall short of the stated cut;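 active = both duplicates at 50% or more, or one of them with a favoured structure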;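 note: 0% = mean of negative control wells and 100% = mean of positive control wells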
MgrA-DNA mod: modulators of Staphylococcus aureus MgrA DNA binding; fluorescence polarization; inhibition, %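 (about 10 µg/mL by stock and volumes)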; actives 0.13% (n = 84,000);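 active = above 50% in either of two replicates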;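 note: 0% = protein plus DNA without compound and 100% = DNA alone without protein; higher means less MgrA bound to DNA so lower polarization; one replicate is shown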
* marks the source's active call; other numbers are inactive results; . = no result given.

canonical_smiles | Sa helicase inh | MgrA-DNA mod
Cc1ccc2cc(NC(=O)CC(CC(=O)O)c3ccccc3)ccc2n1 (stereo unspecified) | . | 0.8
CC1CN(c2ccc(C(F)(F)F)cn2)CC(C)O1 (stereo unspecified) | 1.0 | -2.2
CC(=O)Nc1ccc(OCC(O)CN2C(C)CCCC2C)cc1 (stereo unspecified) | -5.0 | .
CCOC(=O)C1=NNC2C(=O)N(CC)C(=O)C12 (stereo unspecified) | 11.0 | -0.5
Cc1cnc(N2CCN(NC(=S)Nc3cccnc3)CC2)c(Cl)c1 | . | -1.8
Oc1ccccc1C1=CC(c2ccccc2)=Nc2ccccc2N1 | 6.0 | .
O=C(/C=C/Sc1ccc(Cl)cc1)c1ccccc1 | . | 0.1
Oc1ccc(CN2CCN(Cc3ccccc3)CC2)c2cccnc12 | -3.0 | .
CNC(=O)Cn1c(=O)c2cccn2c2cccnc21 | -2.0 | -2.3
CN(C)C(=S)SCc1ccc(Cl)cc1Cl | 10.0 | 0.7
COc1ccc(C2CC2/C(=N/O)c2ccccn2)cc1 (stereo unspecified) | . | 0.5
CC(C)(/C=N/N(Cc1ccccc1)c1ccccc1)CO | 6.0 | .

New compounds follow
canonical_smiles | Sa helicase inh | MgrA-DNA mod
COC(=O)CCS(=O)(=O)c1nc(-c2ccc(OC)c(OC)c2)cc(C(F)(F)F)n1 | -18.0 | .
CS(=O)(=O)NCCc1c[nH]c2ccc(Cl)cc12 | -3.0 | -0.9
CCOC(=O)c1ccc(OC(=O)CCCCCN=C(N)N)cc1 | . | 0.7
Cc1cc(C(=O)N2CCCC2)on1 | -5.0 | .
O=C(Nc1cccc(-c2cn3ccsc3n2)c1)c1cccs1 | 3.0 | .
N#Cc1ccc(S(=O)(=O)N2CCNCC2)cc1 | -1.0 | -1.1
Cc1ccccc1C(=O)NCCc1ccc(S(N)(=O)=O)cc1 | -13.0 | .
CSc1noc(-c2ccc(C(C)(C)C)cc2)c1C#N | . | 4.2
c1ccc(Cn2c(NCc3ccco3)nc3ccccc32)cc1 | 34.0 | .
CCc1cc(C(=O)OC)c(NC(=O)CC2Sc3ccccc3NC2=O)s1 (stereo unspecified) | -22.0 | .
Cc1ccc(Cc2c(C)nc(NCc3ccccc3)[nH]c2=O)cc1 | 5.0 | -2.2
COc1ccccc1N=c1oc2cc(OC(C)=O)ccc2cc1C(=O)NC(C)=O | . | -1.7

Quoted at random: five compounds from above
canonical_smiles | Sa helicase inh | MgrA-DNA mod
Cc1ccccc1C(=O)NCCc1ccc(S(N)(=O)=O)cc1 | -13.0 | .
N#Cc1ccc(S(=O)(=O)N2CCNCC2)cc1 | -1.0 | -1.1
COc1ccccc1N=c1oc2cc(OC(C)=O)ccc2cc1C(=O)NC(C)=O | . | -1.7
Cc1ccc(Cc2c(C)nc(NCc3ccccc3)[nH]c2=O)cc1 | 5.0 | -2.2
CS(=O)(=O)NCCc1c[nH]c2ccc(Cl)cc12 | -3.0 | -0.9

The list goes on:
canonical_smiles | Sa helicase inh | MgrA-DNA mod
Cc1ccccc1OCc1ccc(C(=O)NC(C)C)o1 | 6.0 | 1.4
O=C(Cc1noc2ccccc12)NCCN1CCN(Cc2ccccc2)CC1 | 1.0 | .
CCSC(SCC)[C@H](O)[C@@H](O)[C@H](O)CO | . | -2.2
CN(CCc1ccccn1)C(=O)c1cc2c(s1)-c1ccccc1OC2 | -17.0 | .
O=C(OCc1cccs1)c1cccnc1Cl | -24.0 | -1.1
CCCCn1c(=S)[nH]c2ccccc2c1=O | -3.0 | 0.8
COc1ccc(OCC(=O)N2CCN(c3ccccc3)CC2)cc1 | 3.0 | -3.5
O=C(c1ccccc1S(=O)(=O)NCc1ccccc1)N1CCCC1 | -1.0 | 0.9
CCn1c(=O)c2sccc2n2c(CCCC(=O)N3CCN(c4ccccc4)CC3)nnc12 | -30.0 | .
O=C(NCc1ccccc1)/C(=C/c1ccco1)NC(=O)c1ccco1 | 6.0 | 0.9
COc1cc2c(cc1OC)C(c1ccccc1)N(C(=O)Cn1cnnn1)CC2 (stereo unspecified) | 1.0 | .
Cc1nc(SCC(=O)N(C)c2ccccc2)nc(C)c1C | -10.0 | .

The list continues.
canonical_smiles | Sa helicase inh | MgrA-DNA mod
O=C1CCCN1CC12CC3CC(CC(C3)C1)C2 | 17.0 | -2.1
Cc1nnc(NC(=O)CSc2nccn2-c2ccccc2)s1 | 2.0 | .
O=C(Nc1ccc(-c2nc3ccccc3o2)cc1)c1ccc(C(=O)c2ccccc2)cc1 | 6.0 | 4.7
O=C(NC12CC3CC(CC(C3)C1)C2)c1ccco1 | 9.0 | -0.7
O=C1CCC(C(=O)Nc2nnc(Cc3ccccc3)s2)=NN1 | -15.0 | .
O=C(COc1ccccc1)N1c2ccccc2Sc2ccccc21 | . | 0.0
CCOCc1c[nH]c(=O)[nH]c1=O | 4.0 | 0.9
Cc1ccc(-n2c3c4c(nc(N5CCOCC5)c(C#N)c4c(C#N)c2=S)NC2(CCCCC2)N3)cc1 | -19.0 | .
N#CCC(=O)c1ccc(Br)cc1 | 11.0 | .
CC(C)(C)c1ccc(-c2noc(-c3ccccc3)n2)cc1 | 5.0 | 2.7
O=C(/C=C/c1ccccc1)Nc1ncn[nH]1 | . | 0.8
CCOc1ccc(CCNCc2c(C)[nH]c(C)c2C(=O)O)cc1 | 18.0 | .

Later entries:
canonical_smiles | Sa helicase inh | MgrA-DNA mod
CC(C)(C)NC(=O)c1cccc(S(=O)(=O)N2CCCC2)c1 | -20.0 | 3.5
CCCCSC1=C(C#N)C(=O)NC(CCC)S1 (stereo unspecified) | -32.0 | .
Clc1ccc(CNc2ccc3c(c2)OCCO3)c(Cl)c1 | -5.0 | -0.9
N#CC1=C(SCC(=O)NCc2ccccc2)NC(=O)CC1c1ccco1 (stereo unspecified) | -20.0 | .
O=C1CN(NC(=O)COc2ccc(Cl)cc2)C(=O)N1 | 10.0 | .
CCc1cc(C(=O)c2ccc(OC)cc2)c(NC(=O)CCC(=O)O)s1 | . | 0.9
COC(=O)c1cc(C(=O)OC)n(Cc2ccc(Cl)cc2Cl)n1 | 4.0 | -3.0
Cc1cc(SCC(=O)O)n2nc(C)c(-c3ccc(Cl)cc3)c2n1 | 4.0 | .
NC(=O)c1ccccc1OCC1CC1 | . | -1.5
C=CCNC(=O)C(C)Sc1nnc2c(n1)[nH]c1ccccc12 (stereo unspecified) | 4.0 | -0.6
CC1CN(C(=O)CCc2ccccc2)C(C)CN1C(=O)CCc1ccccc1 (stereo unspecified) | 14.0 | .
CNC(=O)Nc1cccc(C(F)(F)F)c1 | 8.0 | -2.0

Going on with the list:
canonical_smiles | Sa helicase inh | MgrA-DNA mod
CC1CCN(c2ccc(C(N)=O)cc2NC(=O)c2ncoc2-c2ccc3ccccc3c2)CC1 | 17.0 | -3.2
CC1CCN(Cc2ccc(O)c3ncccc23)CC1 | 6.0 | .
CC1CCN(c2nc3c(S(=O)(=O)c4ccccc4)nnn3c3ccccc23)CC1 | 13.0 | .
CSc1n[nH]c(-c2cc(C(F)(F)F)cc(C(F)(F)F)c2)n1 | . | -1.3
Nc1ccc(-n2nc(C(F)(F)F)cc2C(F)(F)F)cc1 | . | -1.3
COCCCn1c(=C(C#N)C#N)s/c(=C/c2ccncc2)c1=O | -1.0 | .
COc1ccc(Cl)cc1C(=O)OCC(=O)N1CCN(C(=O)COC(=O)c2cc(Cl)ccc2OC)CC1 | 4.0 | .
COc1cccc(CNS(=O)(=O)c2c(C)nc3sccn3c2=O)c1 | 2.0 | -1.2
CCCn1c(SCc2csc(-c3ccccc3)n2)n[nH]c1=O | -9.0 | .
Cc1cc(C(=O)N2C(C)CCCC2C)no1 (stereo unspecified) | 11.0 | .
CC(NCc1ccc2c(c1)OCO2)C(=O)NC1CCCCC1 (stereo unspecified) | 9.0 | -2.7
O=C(NCc1ccc(F)cc1)c1cc(C2CC2)on1 | 39.0 | .

The results go on:
canonical_smiles | Sa helicase inh | MgrA-DNA mod
CCOC(=O)CCc1c(C)c2cc(Cl)c(OCC(N)=O)cc2oc1=O | 8.0 | 1.3
COC(=O)c1sc2ccccc2c1NC(=O)c1ccccc1 | 7.0 | .
CC1CCCC(C)N1C(=O)CSc1nncn1C (stereo unspecified) | -2.0 | .
COc1ccc(C2Nc3ccccc3C(=O)N2c2ccc(F)cc2)cc1Cn1nnc2ccccc21 (stereo unspecified) | . | 0.0
CN1CCN(c2ccc(NC(=O)CCN3C(=O)CSc4ccccc43)cc2)CC1 | 6.0 | .
O=C1C2CCCC2=NN1c1ccccc1 (stereo unspecified) | -3.0 | .
Cc1cccc(-c2cc3nc4c(c(NCCN(C)C)n3n2)CCC4)c1 | 20.0 | 2.5
CCOC(=O)c1c(C)[nH]c(=S)c(C#N)c1-c1ccc(OC)cc1 | -8.0 | 4.5
Cc1ccc(/C=C2/SC(=O)N(CCC(=O)Nc3c(C)n(C)n(-c4ccccc4)c3=O)C2=O)cc1 | . | -1.2
COC(=O)c1c(NC(=O)Cc2cccs2)sc2c1CCCC2 | -3.0 | 6.9
O=C(Nc1nnc(-c2ccco2)o1)c1ccc(S(=O)(=O)N2CCCc3ccccc32)cc1 | -2.0 | .
COc1ccc(-c2c(C(F)(F)F)oc3cc(O)ccc3c2=O)cc1 | -3.0 | .

(cont.)
canonical_smiles | Sa helicase inh | MgrA-DNA mod
Cc1ccc(C2=NN(S(C)(=O)=O)C(c3ccc4nccnc4c3)C2)cc1 (stereo unspecified) | -13.0 | 6.8
COc1ccc(C(=O)C(C)Sc2nc3ccccc3n2C)c(OC)c1 (stereo unspecified) | 2.0 | .
Cc1nn(Cc2ccccc2Cl)c2sc(C(=O)N3CCc4ccccc43)cc12 | -6.0 | .
Nn1c(-c2ccco2)n[nH]c1=S | -2.0 | .
CC(=O)O/N=C/c1ccc2c(c1)CCO2 | -12.0 | .
c1ccc2sc(N3CCOCC3)nc2c1 | -4.0 | .
Cc1cc2c3c(c1)c(O)c(-c1ccccc1)c(=O)n3CCC2 | . | 0.2
C/C(=N\NC(=O)c1ccc(O)cc1)c1ccc(S(=O)(=O)NCc2ccco2)cc1 | 5.0 | .
CCOc1ccc(NC(=O)C2CC(=O)N(Cc3ccc4c(c3)OCO4)C(=Nc3ccc(OC)cc3)S2)cc1 (stereo unspecified) | . | 0.0
CNC(=O)Cc1csc2ccc(C)cc12 | . | -0.5
Cc1ccc(NS(=O)(=O)c2ccc(C)c(C(=O)OCC(=O)NCc3ccco3)c2)cc1 | 6.0 | .
C=CCNc1ncnc2cc(OC)c(OC)cc12 | -7.0 | .

Following part:
canonical_smiles | Sa helicase inh | MgrA-DNA mod
S=C(NC1CC2CCC1C2)NN1C2CSC1CS2 (stereo unspecified) | 35.0 | .
COC(=O)c1ccc2c(=O)n(C3CCCCC3C)c(=S)[nH]c2c1 (stereo unspecified) | 2.0 | 0.8
Cc1ccccc1CN1CCC(N2CCCCC2)CC1 | 1.0 | -8.6
CN(C)c1ccc(/C=C/C=C2\SC(=Nc3ccccc3)NC2=O)cc1 | . | -2.6
O=C(CSc1nc2c(c(=O)n1Cc1ccccc1)SCC2)N1CCCC1 | 7.0 | .
COC(=O)c1sccc1NC(=O)c1ccno1 | . | -2.8
Cc1ccc2c(c1)N(CC(=O)NCCc1ccccc1)C(=O)c1cccnc1O2 | 4.0 | 0.9
CCN1CCN(S(=O)(=O)/C=C/c2ccccc2)CC1 | 15.0 | .
Cc1ccccc1-c1c(C)oc2c(CN(C)C)c(O)ccc2c1=O | -2.0 | .
COC(=O)CSc1nnc(-c2ccncc2)n1-c1ccc(OC)cc1 | 8.0 | -1.1
COC(=O)C(C)n1cnc2c(cnn2-c2ccccc2)c1=O (stereo unspecified) | 14.0 | .
COc1ccc(-n2ncc(C(=O)N3CCCCC3)c2C)cc1 | . | -2.4

The list goes on:
canonical_smiles | Sa helicase inh | MgrA-DNA mod
Cc1csc2c(NC(C)C)ncnc12 | . | 5.1
O=C(O)CCNC(=S)Nc1cccc(Cl)c1Cl | . | 2.0
COc1ccc(Cl)cc1C(=O)Nc1ccc(F)cc1F | -21.0 | 1.2
O=c1c2c(nc(NCCO)n1-c1ccccc1)-c1ccccc1CC21CCCCC1 | 15.0 | 2.8
Cc1ccccc1CN(C)C(=O)[C@H](Cc1ccccc1)NC(=O)c1ccco1 | -13.0 | .
COc1cccc2sc(NS(=O)(=O)CS(=O)(=O)Nc3nc4c(OC)cccc4s3)nc12 | 15.0 | .
Cc1[nH]c2ccccc2c1C1CC(=O)NC1=O (stereo unspecified) | 12.0 | .
O=C1COc2ccccc2N1Cc1ccccc1 | . | -0.6
O=C(O)C1CCN(S(=O)(=O)c2ccc(C(F)(F)F)cc2)CC1 | 28.0 | .
CCNC(=S)NS(=O)(=O)c1ccccc1 | 17.0 | -0.3
COc1cccc(S(=O)(=O)NCC(=O)N2CCCCC2C)c1 (stereo unspecified) | -6.0 | 0.0
CCOc1ccc(NC(=O)CN2C(=O)C3(OCCCO3)c3ccccc32)cc1 | -5.0 | -0.9

(further entries)
canonical_smiles | Sa helicase inh | MgrA-DNA mod
O=C1CCC(=O)N1CCc1cnc[nH]1 | . | 0.3
O=C1c2ccccc2C(=O)N1CCN1CCCCC1 | 7.0 | -1.1
CCOC(=O)c1nc(Nc2ccccc2)c2ccccc2n1 | 5.0 | .
Cc1[nH]n(-c2ccccc2)c(=O)c1C=NCc1ccncc1 | 6.0 | .
O=c1[nH]cnc2c1cnn2-c1ccc(F)cc1 | . | -1.9
CN(C)c1ccc(NC(=O)CCCc2ccccc2)cc1 | 16.0 | -0.7
COCCn1c(O)c(C=NCc2nc3ccccc3n2C)c(=O)[nH]c1=S | -52.0 | .
Cc1ccc(C2C(=O)N(C3CCCCCC3)CC(=O)N2C2CCCCC2)cc1 (stereo unspecified) | -13.0 | .
COc1ccc(S(=O)(=O)NCCN2CCOCC2)cc1-c1nnc2c3ccccc3c(C)nn12 | 9.0 | -4.5
NC(=O)c1ccccc1Oc1ccc(Cl)cc1Cl | . | -1.8
CSc1ncc(C(=O)NCc2ccc(F)cc2)c(C(F)(F)F)n1 | -17.0 | .
CNC(=O)Nc1ccc(C2SCCS2)cc1 | . | -1.8
N#CCc1c(C#N)c(N)nc(NCc2ccccc2)c1C#N | -16.0 | .
COc1ccc(-c2ccc(OC)cc2C#N)cc1 | . | -0.3
Cc1cccc(C(C)C)c1NC(=O)CSc1ncnc2ccccc12 | -16.0 | -1.8

High-throughput results from PubChem.

Not all compounds are listed; count on the stated rates, not on these rows.
